Assay outcomes: PubChem, National Center for Advancing Translational Sciences (NCATS)
Rango complex inh – inhibitors of Rango-importin beta complex formation; Potency, µM (doses to about 92.2 µM), without a hit: top-dose inhibition of complex formation; Rango CFP/YFP FRET sensor + importin beta, 45 min; 340,000 tested, 0.031% active; Q14974; AID 540263; active = rising FRET ratio curve, often small or poorly fitted; inconclusive = mostly compound fluorescence or quenching in the first reads; inactive = flat curves in all reads;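 further: potency means the concentration at half of the fitted maximal effect; 0% = DMSO wells and 100% = buffer wells lacking importin beta; nearly all actives have a fitted effect of over 15% in size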
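Inhibition scored from the CFP 486 nm/YFP 530 nm FRET ratio 45 min after adding 0.125 microM importin beta to 50 nM Rango biosensor preincubated 5 min with compound (room temperature, PBS with DTT, Tween-20, BSA). No-importin wells as positive control.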
GLA inh pH 4.5 – inhibitors of human alpha-galactosidase A at pH 4.5; P06280; purified enzyme, 4-MU-alpha-Gal fluorescence, pH 4.5; activity change, negative = inhibition, % at 105 µM; 230,000 tested, under 10 active; AID 1467; inconclusive = small, poorly fitted or top-dose-only inhibition, or a rising curve; inactive = flat fitted curve, though single readings scatter; no compound was filed as active;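 further: 0% = full activity with enzyme and -100% = basal without enzyme; dose as in the result columns while the protocol names 77 µM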
Target sequence (P06280 whole entry, looked up): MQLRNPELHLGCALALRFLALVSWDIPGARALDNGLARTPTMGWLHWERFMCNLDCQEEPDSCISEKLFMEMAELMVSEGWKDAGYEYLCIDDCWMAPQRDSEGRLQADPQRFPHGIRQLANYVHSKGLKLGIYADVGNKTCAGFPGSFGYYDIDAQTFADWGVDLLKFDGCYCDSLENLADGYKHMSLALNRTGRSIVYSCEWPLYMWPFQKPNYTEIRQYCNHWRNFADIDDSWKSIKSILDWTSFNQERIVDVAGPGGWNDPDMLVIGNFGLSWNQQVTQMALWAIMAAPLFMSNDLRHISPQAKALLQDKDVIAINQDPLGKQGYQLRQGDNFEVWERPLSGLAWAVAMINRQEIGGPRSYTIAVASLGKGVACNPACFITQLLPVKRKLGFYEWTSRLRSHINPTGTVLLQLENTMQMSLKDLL
miR-21 FLuc – raises the signal of a miR-21 reporter; Potency, µM (doses to about 38.3 µM), without a hit: top-dose reporter change, positive = more light; HeLa miR-21 FLuc reporter, luciferase, 48 h; 340,000 tested, under 10 active; active = well fitted rising curve with a large enough effect; inconclusive = small, poorly fitted or top-dose-only effect; inactive = no such curve, though single readings can be large or run the other way;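 further: % of control where 0% means no effect; miR-21 action dims this reporter so a rising signal means less miR-21 action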
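HeLa miR-21-FLuc reporter line, endogenous miR-21; 2000 cells/well in DMEM/10% FBS; compound titration up to ~40uM final, 48 h, 37 degree Celsius; luciferase detection reagent, 15 min lysis, CCD luminescence.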
Rango dissoc inh – inhibition of RanGTP-driven Rango-importin beta dissociation. O95149+P62826. Biochemical FRET Rango-importin beta, RanGTP-induced dissociation. Potency, µM (titrated, usually from 46.1 µM), inactives show at the highest dose activity change, negative = inhibition. 340,000 tested, 0.071% active. AID 540253; active means falling FRET ratio curve, often poorly fitted, with flat reads before Ran was added; inconclusive means other falling curves, or compound fluorescence or quenching; inactive means flat or rising ratio curve;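 further: potency means the concentration at half of the fitted maximal effect; % of control where 0% means no effect; nearly all actives have a fitted effect of over 45% in size; -100% = wells without RanGTP and RCC1; the record marks most hits as doubtful in a second field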
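Compounds sat 5 min at room temperature with 0.1 uM Rango biosensor plus 0.25 uM importin beta, then FRET pre-read. RanGTP-RCC1 (0.6 uM Ran, 2mM GTP, 0.2 uM RCC1) added for 45 min, and the CFP/YFP post-read measured blocked complex dissociation.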
* hit, by the source's call; ? = inconclusive; · = no result given; & = joins results of further samples. A portion of the library (hit frequency here may not be typical).

structure	Rango complex inh	GLA inh pH 4.5	miR-21 FLuc	Rango dissoc inh
O=c1c2ccccc2[nH]c(=S)n1CCN1CCc2ccccc2C1	-1.2%	-3	6%	15%
Nc1nc(Nc2cccc(Cl)c2)nc(NCCO)c1[N+](=O)[O-]	-1.2%	-13	-25%	-4%
CCOc1ccc(N=C(NC#N)SCC(=O)NC2CC2)cc1	0.4%	-6	-15%	5%
O=[N+]([O-])c1ccc(Oc2ccc(Oc3ccc(C(F)(F)F)cn3)cc2)nc1	-4.8%	-20	8%	29%
O=C(C(=NNc1ccccc1)c1ccccc1)c1ccccc1	4.1%	·	·	16%
O=C1OC(COc2ccc(Br)cc2)CN1c1ccccc1 (stereo not drawn)	5.2%	4	1%	1%
CCCCC(=O)NC(=S)Nc1ccccc1N1CCCCC1	0.7%	-11	-1%	5%
COc1ccc(NC(=O)c2ccc(S(=O)(=O)N(C)c3ccccc3)cc2)cn1	2.6%	-19	?	-7%
Cc1ccc(NCC(=O)N2CCN(S(=O)(=O)c3ccccc3)CC2)cc1F	-0.9%	·	·	-1%
N#Cc1cc2c(nc1SCC(=O)N1CCCCC1)CCCCC2	-0.4%	7	-53%	-2%
CCCOc1ccccc1C(=O)Nc1ccc(S(=O)(=O)N2CCN(C)CC2)cc1	-3.2%	·	2%	0%
CNC(=S)NN=C(C)c1ccc(OC)cc1O	-1.3%	·	·	1%
Cc1[nH]c2ccccc2c1[C@H]1[C@@H](CC#N)C1(C)C	-4.6%	-7	-6%	-15%
COC(=O)c1sc(NC(=S)NC(=O)c2ccc(F)cc2)nc1C	·	8	-7%	·
CC(C)C(c1nnnn1C1CCCC1)N1CCc2ccccc21 (stereo not drawn)	0.0%	-3	-3%	9%
CC(C)(C)NC(=O)CCSc1nnc(-c2ccco2)o1	-0.1%	1	-24%	-12%
Cc1ccc(S(=O)(=O)N2CCCCC2)cc1NC(=O)C1CC(=O)N(Cc2ccco2)C1 (stereo not drawn)	-0.5%	·	·	-6%
Cc1[nH]c(=O)[nH]c(=S)c1C(=O)Nc1ccc(Cl)c(Cl)c1	-1.2%	·	·	10%
COC(=O)c1cccc(NC(=O)c2ccc(OC)c(Cl)c2)c1	0.5%	-2	-45%	-9%
CN(Cc1ccccc1)S(=O)(=O)c1ccc2[nH]c(=O)ccc2c1	-1.1%	·	-2%	-11%
O=S(=O)(Nc1ccc(F)cc1)c1ccc(NS(=O)(=O)c2cccs2)cc1	0.1%	·	1%	-9%
O=C(O)c1ccc(/C=N/N2CCN(Cc3ccc(Cl)cc3)CC2)cc1	1.1%	8	4%	-16%
COc1cccc(C(=O)NC2CCN(C(=O)N3c4ccccc4Sc4ccccc43)CC2)c1	-0.7%	-3	20%	17%
Cc1cc(NC(=O)CSc2nc(C(C)C)nc3ccccc23)no1	6.1%	6	?	14%
O=C(Nc1ccccc1)C1CCCN(C(=O)c2ccc(F)cc2)C1 (stereo not drawn)	3.0%	·	·	19%
Cc1ccc(C)c(NC(=O)C2CCCN2/C=C/C(=O)C(F)(F)F)c1 (stereo not drawn)	0.8%	0	-7%	-1%
Cc1cc2c(s1)c1cnn(Cc3ccccc3F)c(=O)c1n2C	-3.2%	10	-3%	-6%
COc1ccc(NS(=O)(=O)c2ccc(N3C(=O)CCC3=O)cc2)cc1	1.6%	0	-3%	3%
NC(=O)c1ccc(Oc2cccc3cccnc23)c([N+](=O)[O-])c1	?	7	-1%	?
CCCOc1cccc(OCC(=O)Nc2nc3ccccc3[nH]2)c1	0.5%	11	-18%	-7%
CN(CC(=O)Nc1cccc(F)c1)C(=O)c1cn(-c2ccccc2)nc1-c1cccs1	0.8%	·	·	11%
c1ccc(-n2cnnc2SCc2cn3ccccc3n2)cc1	-1.0%	3	-5%	-9%
Cc1ccc(C)c(Oc2coc3cc(OC(=O)c4cccs4)ccc3c2=O)c1	-1.5%	·	·	7%
COc1ccccc1NC(=O)Nc1nc(CC(=O)Nc2ccc(F)c(F)c2)cs1	1.6%	·	·	10%
C=CCNC(=S)N1CCC(Cc2ccccc2)CC1	1.1%	·	5%	-2%
O=C(c1cc([N+](=O)[O-])ccc1Cl)N1CCN(c2ccc(F)cc2)CC1	-0.1%	-9	-9%	1%
FC(F)Oc1ccc(NC(=S)NCc2ccccc2)cc1	-2.6%	9	-16%	-1%
O=C(CSc1nnc(Cc2cc(=O)[nH]c(=O)[nH]2)n1-c1ccc(F)cc1)NC1CCCC1	-0.5%	11	1%	-11%
CC(=O)NC1=NN(C(C)=O)C2(S1)C(=O)N(C(C)=O)c1ccc(C)cc12 (stereo not drawn)	-3.6%	3	-1%	13%
CCN(CC)CCn1c(NC(=O)c2ccc(C)cc2)nc2ccccc21	-0.5%	·	-47%	14%
COc1ccc(/C=N/NC(=O)C(C)n2cnc3ccccc3c2=O)cc1OC (stereo not drawn)	-1.8%	7	-19%	0%
O=C(NCC(c1cccs1)N1CCOCC1)c1ccc(Cl)c(S(=O)(=O)N2CCOCC2)c1 (stereo not drawn)	-2.9%	-1	1%	-3%
Cc1ccc(C(=O)Nc2nnc(SCC(=O)N3CCCc4ccccc43)s2)cc1	3.1%	4	-9%	0%
O=C(NN1C(=O)c2ccccc2NC1c1ccoc1)c1ccccc1 (stereo not drawn)	-2.1%	1	-17%	-8%
COCCn1c(N)c(N(Cc2ccccc2)C(=O)c2cc(=O)[nH]c3ccccc23)c(=O)[nH]c1=O	0.1%	·	·	10%
Cc1noc(C)c1CCC(=O)O	1.3%	9	0%	-15%
Cc1ccnc(SCc2ccc(C(=O)O)cc2)n1	0.1%	·	3%	7%
CN1CCOCCOCCN(C)C(=O)N2CCOCCOCCN(CCOCC2)C1=O	1.2%	7	-2%	-9%
Cc1ccc(C)c(N2CCN(S(=O)(=O)c3ccc4c(c3)NC(=O)CS4)CC2)c1	-4.0%	·	16%	6%
Cc1ccc(C)c(NC(=S)NC(NC(=O)/C=C/c2ccccc2)C(Cl)(Cl)Cl)c1 (stereo not drawn)	-2.0%	5	3%	10%
Cc1ccc(CCNC(=O)CN2C(=O)COc3ccc(S(=O)(=O)N4CCCCC4)cc32)cc1	4.9%	·	-2%&-3%	2%
O=S(=O)(Cc1ccc(Cl)cc1)NCC1CCCO1 (stereo not drawn)	3.5%	0	0%	0%
CCC(C)NC(=O)CSc1nc2ccccc2c(=O)n1CCCN1CCCCC1 (stereo not drawn)	-0.4%	·	0%	-2%
O=C(CN(C(=O)c1ccccc1Cl)N1C(=O)CCCC1=O)c1ccc(Cl)cc1	0.3%	-1	0%	-5%
CC(C)CNC(=O)NC(=O)COc1c(F)c(F)cc(F)c1F	-2.0%	-6	-10%	1%
CCN1C(=O)[C@@H]2[C@H](C1=O)[C@@H]1C(=O)Nc3ccccc3C(=O)N1[C@@H]2c1ccc(OC)cc1	-1.6%	·	·	-19%
CC(C)=C1C2CCC1C1C(=O)N(c3ccc(C)c(C)c3)C(=O)C21 (stereo not drawn)	-2.3%	-7	0%	11%
CCN(CC)S(=O)(=O)c1ccc(N/N=C/c2ccccc2OCC(=O)O)c([N+](=O)[O-])c1	?	0	4%	21%
CC(C)C[C@H](NC(=O)NCCc1ccc(Cl)cc1)C(=O)O	0.8%	3	0%	5%
COc1cccc(SCc2noc(C(=O)NCc3ccccc3)c2C(=O)NCc2ccccc2)c1	0.2%	-1	2%	4%

Continuation.
structure	Rango complex inh	GLA inh pH 4.5	miR-21 FLuc	Rango dissoc inh
CCOC(=O)C1=C(c2ccccc2)Nc2nc(C)nn2C1c1cccc(OC)c1OC (stereo not drawn)	-1.8%	2	-4%	3%
COC(=O)C1C(c2ccc(OC)cc2)NC(=O)NC1(O)C(F)(F)Cl (stereo not drawn)	1.5%	1	-3%	7%
CC(=O)c1c(C)[nH]c(C(=O)OCc2ccccc2F)c1C	-5.1%	4	-19%	14%
CCCC(c1nnnn1C(C)(C)CC)N1CCN(C2CCCC2)CC1 (stereo not drawn)	-6.7%	2	-1%	17%
C(=N\N1CCN(c2ccccn2)CC1)/C1=C(N2CCOCC2)C(=C/c2ccccc2)/CC1	6.9%	-15	-2%	5%
O=C(CNC(=O)c1ccccc1Cl)N/N=C/c1ccc([N+](=O)[O-])s1	1.1%	-5	?	0%
CN1CCN(C(=O)C(C(=O)c2ccc(F)cc2)n2ccccc2=O)CC1 (stereo not drawn)	0.5%	-1	1%	12%
CC(C)(C)C(=O)Nc1ccc(N2CCCC2)cc1	-1.3%	-12	-24%	-5%
COc1cccc(CNCc2cccc(OC)c2O)c1O	1.3%	·	·	8%
CCCC(=O)N(c1ccc2oc(C)c(C(C)=O)c2c1)S(=O)(=O)c1ccc(C(=O)O)cc1	0.7%	·	2%	1%
O=C1[C@H](Oc2ccccc2)[C@@H](c2ccccc2)N1c1ccncc1	0.2%	·	·	0%
O=C(O)c1ccc(-n2nc(C(F)(F)F)c3c2-c2ccoc2CC3)cc1	0.0%	-29	-11%	19%
Cc1ccc2[nH]c(=O)c(CN(Cc3ccco3)C(=O)CN3CCCC(C)C3)cc2c1 (stereo not drawn)	0.0%	0	-5%	-12%
O=C1Nc2ccccc2SC1c1ccccc1 (stereo not drawn)	-1.9%	·	-4%	-17%
CCOc1ccc(CN2CCN(c3ncnc4scc(-c5ccccc5)c34)CC2)cc1	-1.0%	·	-2%	-14%
Cn1c(Cc2ccc3c(c2)OCO3)nnc1SCC(=O)N1CCc2ccccc2C1	-0.8%	9	-7%	1%
N#Cc1c(NC(=O)Cn2c(=O)oc3ccccc32)oc(-c2ccccc2)c1-c1ccccc1	1.1%	-10	0%	0%
CCCn1c(SCC(=O)c2cc(OC)ccc2OC)nc2c1c(=O)n(C)c(=O)n2C	-0.4%	-6	-3%	18%
O=C(O)CCNc1ccc(Cl)cc1	-3.4%	-12	-8%	-5%
NS(=O)(=O)c1ccc(CCNCc2ccccc2OCc2ccc(F)cc2)cc1	-2.2%	·	11%	9%
O=C(CSc1n[nH]c(=O)[nH]c1=O)N/N=C/c1ccccc1O	0.6%	-7	-3%	-7%
CC(=NC1CC1)c1c(-c2ccccc2)[nH]n(-c2nc3ccccc3s2)c1=O	-0.8%	-7	-24%	1%
